Screening results from PubChem BioAssay.
ID4 binder: ID4 (human) binding | calls only | small molecule microarray, Flag-ID4 binding, fluorescence F/B | hit rate 1.2% among 31,000 | AID 624137;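 active means spot signal over background at p below 0.07 in all four prints; compounds were printed on slides so no solution concentration is given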;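 further: a binder raises fluorescence above local background on the spot; about 2 pmol printed per array spot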
Target sequence (P47928 whole entry, looked up): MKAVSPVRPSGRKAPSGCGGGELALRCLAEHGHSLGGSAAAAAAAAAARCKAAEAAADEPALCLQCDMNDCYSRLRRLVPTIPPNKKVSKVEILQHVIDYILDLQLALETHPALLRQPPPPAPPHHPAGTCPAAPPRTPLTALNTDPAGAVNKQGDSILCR
Calls only; i = inactive; + = active, no number. This is a subset; the hit share may differ from the screen's.

SMILES | ID4 binder
COc1ccc(NC(=O)CSc2nc3c(cc2C#N)C(=O)CCC3)cc1 | i
Cc1sc2ncnc(SCC(=O)Nc3cccc(C(F)(F)F)c3)c2c1C | i
C[C@H](CO)N1C[C@H](C)[C@H](CN(C)Cc2ccccc2)Oc2ncc(-c3ccccc3F)cc2C1=O | i
CCCCCCCC/C=C\C/C=C\C/C=C\CCCC(=O)O | i
COCC(=O)N(C)C[C@@H]1Oc2cc(-c3cccc(F)c3)ccc2S(=O)(=O)N([C@@H](C)CO)C[C@H]1C | i
Cn1c(SCC(=O)Nc2ccc(F)c(Cl)c2)nnc1-c1ccncc1 | i
C[C@H](CO)N1C[C@H](C)[C@H](CN(C)C(=O)C2CCCCC2)Oc2ncc(Br)cc2C1=O | i
O=C(Cc1ccccc1)N[C@@H]1CC[C@@H](CC(=O)N2CCOCC2)O[C@@H]1CO | i
C[C@@H](NC(=O)C[C@@H]1C[C@H]2c3cc(N(C)C)ccc3O[C@H]2[C@@H](CO)O1)c1ccccc1 | i
CCCN(C)C[C@@H]1Oc2ncc(C#Cc3ccc(F)cc3)cc2C(=O)N([C@H](C)CO)C[C@@H]1C | i
Cc1cccc(N(CC(=O)Nc2cccc([N+](=O)[O-])c2)S(C)(=O)=O)c1C | i
Cc1sc2ncn(CC(=O)Nc3ccccc3C(F)(F)F)c(=O)c2c1C | i
O=c1[nH]c(CSc2nnc(-c3ccccc3)n2C2CCCCC2)nc2ccccc12 | i
COc1cc(NC(=O)COc2ccccc2Br)c(OC)cc1Cl | i
O=C(C[C@H]1C=C[C@H](NC(=O)Cc2ccccn2)[C@@H](CO)O1)NCCCN1CCOCC1 | i
Cc1cc2nn(-c3ccc(F)cc3)nc2cc1NC(=O)COc1ccc(Br)cc1 | i
C[C@H]1CN([C@@H](C)CO)C(=O)CCCn2nncc2CO[C@H]1CN(C)CC1CC1 | i
O=C(OCC1OC2C(Oc3nc(=O)ccn32)C1O)c1ccccc1 (centres undefined) | i
Cc1ccc(NC(=O)c2ccco2)c(NC(=O)COc2ccccc2)c1 | i
COC(=O)c1ccccc1NC(=O)CN(c1cc(Cl)c(Cl)cc1Cl)S(C)(=O)=O | i
CCCC#Cc1ccc([C@H]2[C@@H](CO)N(C(=O)C3CCCCC3)[C@H]2C#N)cc1 | i
Cc1ccc(-n2c(SCC(=O)Nc3ccc(Br)cc3)nnc2-c2ccco2)cc1 | i
CCc1cc(C(=O)OC)c(NC(=O)c2cc(-c3cccnc3)nc3ccc(Br)cc23)s1 | i
Cc1cccc(C)c1NC(=O)CN(C1CCCCC1)S(=O)(=O)c1ccc(Cl)cc1 | i
COc1cc(NC(=O)COc2cc(C)c(Cl)c(C)c2)ccc1NC(=O)c1ccco1 | i
Following part
SMILES | ID4 binder
O=C(/C=C/c1ccccc1)Nc1nnc(CSCc2ccccc2F)s1 | i
COc1ccc(NC(=O)N(C)C[C@H]2Oc3cc(-c4ccc(C)cc4)ccc3S(=O)(=O)N([C@@H](C)CO)C[C@H]2C)cc1 | i
COC(=O)C[C@H]1C=C[C@@H](NC(=O)Nc2ccc(C(F)(F)F)cc2)[C@H](CO)O1 | i
NC(=O)NCC#Cc1ccc2c(c1)[C@]1(C(=O)N2)[C@H](C(N)=O)[C@H]2C(=O)O[C@H](c3ccccc3)[C@H](c3ccccc3)N2[C@@H]1c1ccccc1OCCO | i
COc1ccc(C)cc1S(=O)(=O)N1CCC(C(=O)Nc2cccc(C(C)=O)c2)CC1 | i
O=C(C[C@@H]1C=C[C@H](NC(=O)CN2CCOCC2)[C@H](CO)O1)NCc1cccc(F)c1 | i
COc1ccc(OC)c(NC(=O)COc2ccc(C(=O)Nc3cccc(C)c3C)cc2)c1 | i
O=C(Nc1ccc(S(=O)(=O)Nc2nccs2)cc1)C1COc2ccccc2O1 (centres undefined) | i
O=c1cc(N2CCOCC2)oc2c1ccc1ccccc12 | i
C=CCn1c2ccccc2c2nnc(SCc3ccccc3F)nc21 | i
Cc1ccc(Cl)cc1NC(=O)CSc1nnc(-c2ccc([N+](=O)[O-])cc2)n1-c1ccccc1 | i
C[C@H](CO)N1C[C@H](C)[C@@H](CN(C)Cc2ccncc2)Oc2ncc(C#CC3CC3)cc2C1=O | i
COc1cccc(NC(=O)N(C)C[C@@H]2OCc3ccccc3-c3c(n(C)c4ccccc34)C(=O)N([C@H](C)CO)C[C@@H]2C)c1 | i
O=C(C[C@H]1C[C@H]2c3cc(NC(=O)C4CCC4)ccc3O[C@H]2[C@@H](CO)O1)NCc1cc(F)ccc1F | i
COC(=O)c1ccccc1NC(=O)CSc1nc2c(c(C(F)(F)F)n1)CCCC2 | i
C[C@@H]1CN([C@@H](C)CO)S(=O)(=O)c2ccc(C3=CCCC3)cc2O[C@H]1CN(C)C(=O)c1cccnc1 | i
Nc1nc(SCC(=O)Nc2ccccc2C(F)(F)F)n[nH]1 | i
COc1ccccc1-c1ccc2c(c1)O[C@@H](CN(C)CC1CCOCC1)[C@H](C)CN([C@@H](C)CO)S2(=O)=O | i
COc1ccc([Si](C)(C)[C@H]2[C@H](CCn3cc(CCO)nn3)O[C@@]3(C(=O)N(Cc4cccc(N5CCC5=O)c4)c4ccccc43)[C@@H]2C)cc1 | i
C[C@@H]1CN([C@@H](C)CO)C(=O)c2cc(C#C[C@@H](C)O)cnc2O[C@H]1CN(C)C(=O)c1ccccc1 | i
COc1cccc2c1NC1CC(C)CCC1C2(C)C (centres undefined) | i
COc1ccc(NC(=O)NCc2ccc(C(=O)O)cc2)c(OC)c1 | +
C/C=C/c1cnc2c(c1)C(=O)N([C@H](C)CO)C[C@H](C)[C@@H](CN(C)Cc1ccccc1F)O2 | i
O=S(=O)(/N=C(/Nc1cc(N2CCOCC2)ncn1)c1ccccc1)c1ccccc1 | i
Cc1cccc(NS(=O)(=O)c2cc(C(=O)Nc3ccccc3C(=O)N3CCOCC3)ccc2Cl)c1 | i
Additional records.
SMILES | ID4 binder
Cc1ccc(-c2nc3ccccc3s2)cc1NC(=O)COc1cccc(C)c1C | i
C[C@@H]1CN([C@H](C)CO)C(=O)c2cc(C#CCc3ccccc3)cnc2O[C@@H]1CN(C)C(=O)C1CC1 | i
O=C(CC1OCCN(Cc2ccccc2)C1=O)Nc1cccc(Cl)c1 (centres undefined) | i
O=C(CSc1nnc(-c2ccccc2Cl)o1)c1ccc2c(c1)OCCO2 | i
O=C1C(=O)N(CCCn2ccnc2)C(c2ccc(Cl)cc2)C1C(=O)c1cccs1 (centres undefined) | i
CC(=O)N(C)C[C@@H]1Oc2ncc(-c3ccc(C)cc3)cc2C(=O)N([C@H](C)CO)C[C@@H]1C | i
COc1ccc(-c2nnc(SCC(=O)Nc3ccc(Cl)cc3Cl)n2-c2ccccc2)cc1OC | i
CC(C)CC#Cc1cnc2c(c1)C(=O)N([C@H](C)CO)C[C@H](C)[C@@H](CN(C)Cc1ccccc1)O2 | i
O=C(Nc1ccccc1[N+](=O)[O-])c1cccc(S(=O)(=O)Nc2ccc(F)cc2)c1 | i
CC(=O)N(/N=C1\Sc2ccccc2C1=O)c1ccccc1 | i
Cc1nnc2sc(-c3cccc(NC(=O)C(C)Oc4ccc(Cl)cc4Cl)c3)nn12 (centres undefined) | i
COC(=O)Cc1c(C)nc2nc(Cc3ccccc3)[nH]n2c1=O | i
Cc1ccc(-c2cnc3c(c2)C(=O)N([C@H](C)CO)C[C@H](C)[C@H](CN(C)CC2CCOCC2)O3)cc1 | i
N#C[C@H]1[C@@H](c2ccc(C#Cc3ccccc3F)cc2)[C@@H](CO)N1C(=O)C1CC1 | i
C[C@H](CO)N1C[C@H](C)[C@@H](CN(C)C(=O)CN2CCOCC2)Oc2cc(/C=C/c3ccccc3)ccc2S1(=O)=O | i
O=C(Nc1ccc2c(c1)[C@@H]1C[C@@H](CC(=O)N3CCCCC3)O[C@H](CO)[C@@H]1O2)C1CCC1 | i
COc1cccc(C#Cc2ccc3c(c2)O[C@H](CN(C)C)[C@H](C)CN([C@@H](C)CO)S3(=O)=O)c1 | i
C/C=C/c1cnc2c(c1)C(=O)N([C@@H](C)CO)C[C@@H](C)[C@@H](CN(C)Cc1ccc3c(c1)OCO3)O2 | i
O=C(CCn1nc(-c2ccccc2)c2ccccc2c1=O)Nc1cccc(Br)c1 | i
CC(C)C#Cc1cnc2c(c1)C(=O)N([C@H](C)CO)C[C@@H](C)[C@H](CN(C)C(=O)c1cccc(F)c1)O2 | i
COC(=O)c1ccc(OC(=O)CS(=O)c2ccc(C(F)(F)F)cc2[N+](=O)[O-])cc1 (centres undefined) | i
CC(=O)N(C)C[C@@H]1Oc2ncc(-c3ccccc3F)cc2C(=O)N([C@H](C)CO)C[C@@H]1C | i
COc1ccc(F)cc1S(=O)(=O)n1cnc2cc(C)c(C)cc21 | i
Cc1ccc(-c2nc3ccccc3s2)cc1NC(=O)COc1ccc(Br)cc1 | i
C[C@H]1CN([C@@H](C)CO)S(=O)(=O)c2ccc(Br)cc2O[C@H]1CN(C)CC1CC1 | i
Other entries follow:
SMILES | ID4 binder
C[C@H](CO)N1C[C@H](C)[C@@H](CN(C)CC2CCCCC2)Oc2ccc(NC(=O)C3CC3)cc2CC1=O | i
CSc1ccc(C(Nc2cc(C)ccn2)c2ccc3ccc(C)nc3c2O)cc1 (centres undefined) | i
O=C(CCN1CCCCC1)N[C@H]1CC[C@@H](CC(=O)N2CCC(Cc3ccccc3)CC2)O[C@H]1CO | i
CC(=O)Nc1ccc(NC(=O)CSc2nncn2C)cc1 | i
COc1ccccc1NC(=O)CN1C(=O)c2cccc3cccc(c23)C1=O | i
C[C@@H]1CN([C@@H](C)CO)C(=O)c2cc(Br)cnc2O[C@H]1CN(C)Cc1cccnc1 | i
CC(C)NC(=O)N[C@H]1C=C[C@H](CC(=O)NC2Cc3ccccc3C2)O[C@H]1CO | i
CC(C)(C)c1ccc(S(=O)(=O)NCC(=O)Nc2cccc(Cl)c2)cc1 | i
Cc1ccc(NC(=O)C(C)Sc2nccc(C)n2)cc1 (centres undefined) | i
CC(=O)N(C)C[C@@H]1Oc2cc(Br)ccc2S(=O)(=O)N([C@H](C)CO)C[C@H]1C | i
O=C(CSc1nc(-c2ccccc2)cc(C(F)(F)F)n1)c1cccc([N+](=O)[O-])c1 | i
CC(C)CC#Cc1ccc2c(c1)O[C@H](CN(C)S(C)(=O)=O)[C@@H](C)CN([C@@H](C)CO)S2(=O)=O | i
CC(C)N1C(=O)[C@@]2(Cc3ccccc31)c1ccccc1C(=O)N(Cc1ccccc1Cl)[C@H]2c1ccc(CO)cc1 | i
C[C@H]1CN([C@@H](C)CO)C(=O)c2cc(-c3ccncc3)cnc2O[C@@H]1CN(C)C(=O)NC1CCCC1 | i
COC(=O)C[C@H]1C=C[C@H](NC(=O)c2ccccc2)[C@H](CO)O1 | i
Cc1ccc(N(C(C)C(=O)O)S(C)(=O)=O)cc1C (centres undefined) | i
COC(=O)c1ccccc1NC(=O)C(C)NS(=O)(=O)c1ccc(F)cc1 (centres undefined) | i
C[C@H](O)C#Cc1cnc2c(c1)C(=O)N([C@@H](C)CO)C[C@@H](C)[C@H](CN(C)Cc1cccc(F)c1)O2 | i
CN(C)C(=O)C[C@H]1C=C[C@@H](NC(=O)c2ccc(F)cc2)[C@@H](CO)O1 | i
O=C1Nc2ccc(S(=O)(=O)NCc3ccccn3)c3cccc1c23 | i
C[C@H](CO)N1C[C@H](C)[C@H](CN(C)Cc2ccccn2)Oc2ncc(C#CCN(C)C)cc2C1=O | i
CC(=O)c1cc(C)ccc1OC(=O)CCN1C(=O)c2ccccc2C1=O | i
CC(NS(=O)(=O)c1ccc(F)cc1)C(=O)Nc1ccccc1Sc1ccccc1 (centres undefined) | i
C[C@@H]1CN([C@@H](C)CO)C(=O)c2cccc(N(C)C)c2O[C@@H]1CN(C)Cc1ccncc1 | i
C/C=C/c1ccc2c(c1)O[C@H](CN(C)C)[C@@H](C)CN([C@@H](C)CO)S2(=O)=O | i

Of the compounds above, four contain a thiophene ring, fused or not:
SMILES | ID4 binder
Cc1sc2ncnc(SCC(=O)Nc3cccc(C(F)(F)F)c3)c2c1C | i
Cc1sc2ncn(CC(=O)Nc3ccccc3C(F)(F)F)c(=O)c2c1C | i
CCc1cc(C(=O)OC)c(NC(=O)c2cc(-c3cccnc3)nc3ccc(Br)cc23)s1 | i
O=C1C(=O)N(CCCn2ccnc2)C(c2ccc(Cl)cc2)C1C(=O)c1cccs1 (centres undefined) | i

Part of the list above, as labelled records:
molecule: COc1ccccc1-c1ccc2c(c1)O[C@@H](CN(C)CC1CCOCC1)[C@H](C)CN([C@@H](C)CO)S2(=O)=O
  ID4 binder: i
molecule: COc1ccc([Si](C)(C)[C@H]2[C@H](CCn3cc(CCO)nn3)O[C@@]3(C(=O)N(Cc4cccc(N5CCC5=O)c4)c4ccccc43)[C@@H]2C)cc1
  ID4 binder: i
molecule: C[C@@H]1CN([C@@H](C)CO)C(=O)c2cc(C#C[C@@H](C)O)cnc2O[C@H]1CN(C)C(=O)c1ccccc1
  ID4 binder: i

Continued:
SMILES | ID4 binder
COCC#Cc1ccc2c(c1)O[C@@H](CN(C)C(=O)C1CCOCC1)[C@@H](C)CN([C@@H](C)CO)S2(=O)=O | i
O=C(O)c1cccc(NC(=O)c2cc(S(=O)(=O)N3CCOCC3)c(Cl)cc2Cl)c1 | i
Cc1cc(OCC(=O)Nc2ccccc2C(=O)NC2CCCCC2)cc(C)c1Cl | i
COc1ccccc1OCC(=O)Nc1cccc(-c2nc3ccccc3o2)c1 | i
C[C@@H]1CN([C@@H](C)CO)C(=O)c2cc(C#CCc3ccccc3)cnc2O[C@@H]1CN(C)Cc1ccccn1 | i
CCOc1ccc(-n2c(SCc3nc(-c4ccc(C)cc4)no3)nnc2-c2ccncc2)cc1 | i
CN(C)C(=O)C[C@H]1CC[C@H](NC(=O)c2ccc(F)cc2)[C@@H](CO)O1 | i
COC(=O)c1cc(OC)c(OC)cc1NC(=O)c1cc(-c2cccnc2)nc2ccc(Cl)cc12 | i
CCCn1nnc(NC(=O)COc2ccc(Br)cc2)n1 | i
C[C@@H]1CN([C@H](C)CO)C(=O)c2cc(N(C)C)ccc2O[C@H]1CN(C)Cc1ccc(Cl)c(Cl)c1 | i

Laid out differently: entries from further up.
SMILES	ID4 binder
CCCn1nnc(NC(=O)COc2ccc(Br)cc2)n1	i
CCOc1ccc(-n2c(SCc3nc(-c4ccc(C)cc4)no3)nnc2-c2ccncc2)cc1	i
O=C(O)c1cccc(NC(=O)c2cc(S(=O)(=O)N3CCOCC3)c(Cl)cc2Cl)c1	i
Cc1cc(OCC(=O)Nc2ccccc2C(=O)NC2CCCCC2)cc(C)c1Cl	i
